Vaccinia mCherry = vaccinia inhibition (mCherry reporter); hit rate 0.63% among 310,000; Vaccinia virus mCherry reporter infection, fluorescence; about a quarter of the inactives have no number; Potency, µM (titrated, usually from 36.5 µM), without a hit: at the top dose activity change, negative = inhibition, actives largely listed as inhibitors; active = well fitted inhibition curve with a large enough effect; inconclusive = small, poorly fitted or top-dose-only effect; inactive = no such curve, though single readings can be large or run the other way; tested in A549 cells; note: nearly all actives have a fitted effect of over 35% in size; inactives centre near -10
Vaccinia Venus = inhibitors of vaccinia virus (Venus reporter). Vaccinia virus Venus reporter expression, fluorescence. Potency, µM (doses to about 36.5 µM), inactives show at the highest dose activity change, negative = inhibition, hits mostly inhibitors. hit rate 0.46% among 330,000. AID 720580; active means well fitted inhibition curve with a large enough effect; inconclusive means small, poorly fitted or top-dose-only effect; inactive means no such curve, though single readings can be large or run the other way; tested in A549 cells; note: nearly all actives have a fitted effect of over 30% in size; inactives centre near -10
Active calls of the source: *; i = inactive; u = inconclusive; x = not tested or not shown; & = joins results of further samples; [ ] = dose if it differs, or a comment. % is set by controls: 0 for no effect and ±100 for the full control effect; potency is the fitted concentration of half-maximal effect.

SMILES	Vaccinia mCherry	Vaccinia Venus
CCn1c(C)c(C)c2cc(C(=O)NCc3ccc(OC)cc3OC)ccc21	-13.7%	-4.0%
Brc1ccc(OCCOCCOc2cccc3cccnc23)cc1	-13.8%	-13.7%
Cc1ccc(Nc2c(C(C)C)c(C)c(C#N)c3nc4ccccc4n23)cc1	-24.0%	-9.9%
COC(=O)c1ccc(C(=O)OC)c(NC(=O)CN2CCN(c3ccccc3OC)CC2)c1	-9.4%	-8.9%
Cc1cc(C)n(CCCC(=O)O)n1	6.1%	-5.0%
C=CCN(C(=O)CNC(=O)c1ccco1)C(C(=O)NC1CCCCC1)c1ccccc1 (stereo not drawn)	-2.2%	11.6%
COc1ccc(NC(=S)N2CCN(CCN=CC3=C(O)CC(c4ccccc4)CC3=O)CC2)cc1 (stereo not drawn)	-18.2%	-9.7%
Cc1ccc(N2C(=O)N3[C@H](c4cccc(C)c4)[C@@H]4C(=O)N(Cc5ccccc5)C(=O)[C@@H]4[C@]3(C)C2=O)cc1	-28.2%	-16.9%
CC1(C(=O)NCC2CCOCC2)Cc2c(-c3cccc(C(F)(F)F)c3)ccnc2O1 (stereo not drawn)	-14.0%	u
Cc1ccc(C2(C)NC(=O)N(CC(=O)NCc3ccccc3Cl)C2=O)cc1 (stereo not drawn)	-16.2%	-4.4%
Nc1ccc(C#Cc2c(-c3ccsc3)oc3ccc(N4CCOCC4)cc23)cc1	-28.1%	-29.4%
O=C(NC1CCCCC1)c1cccc(N2C(=O)CCC2=O)c1	i	0.7%
CC(C)Cn1c(SCC(=O)NC(=O)Nc2ccc3c(c2)OCCO3)nc2ccccc2c1=O	u	-2.2%
CCc1sc(NC(=O)COC)nc1-c1ccccc1	-25.2%	-20.8%
C=CCn1c(SCC(=O)NC23CC4CC(CC(C4)C2)C3)nc2cc(C(=O)O)ccc2c1=O	i	-14.3%
COc1ccc2cc(Br)ccc2c1CC(=O)N1CCCC1	-17.6%	-6.8%
CC(=O)Nc1cc2c(nc1C)nc(C)n2Cc1ccc(Br)cc1	-0.5%	5.4%
CCN1CCN(c2ccc(NC(=O)COc3ccc([N+](=O)[O-])cc3)cc2)CC1	-8.0%	-13.3%
CC(=O)Cc1nsc(Nc2ccc(F)cc2)n1	-2.2%	-8.4%
c1ccc(COc2ncnc3c2ncn3CCCN2CCN(c3ncccn3)CC2)cc1	-10.6%	-12.2%
CCNC(=O)NC(=O)CSc1cccc(C(F)(F)F)c1	-18.3%	-11.3%
COC(=O)[C@]1(Cc2ccccc2)N[C@H](CN(C)S(=O)(=O)c2ccc(OC)cc2)[C@@H]2C(=O)N(C)C(=O)[C@@H]21	i	-12.0%
CC(C)(C)c1ccc(CC(=O)N2CCC2(C)C(=O)NCCC#N)cc1 (stereo not drawn)	49.5%[activator]	2.9%
Cc1nn(CCCC(=O)NCc2ccccc2Cl)c(=O)c2nccn12	33.8%[activator]	-6.5%
COCCNC(=O)c1ccc(NS(=O)(=O)c2ccc3[nH]c(=O)[nH]c3c2)cc1	-9.6%	-10.7%
Cc1ccc2ccc(C(Nc3ccccc3)c3ccc(C(C)C)cc3)c(O)c2n1 (stereo not drawn)	u	-16.0%
Nc1cccc(CCc2nc3cc4ccccc4cc3[nH]2)c1	u	u
Cc1cc(NC(=O)Cc2cccs2)no1	-11.7%	-11.9%
O=C(C1CCN(S(=O)(=O)c2ccccc2)CC1)N(CCc1ccccc1)Cc1ccco1	-4.9%	-6.9%
O=C1CCC(=O)N1CCOP1(=O)COc2ccccc2OC1	-11.1%	-7.2%
O=C(Nc1cccc([N+](=O)[O-])c1)c1ccn[nH]1	-5.9%	7.3%
COC(=O)Cn1cc(/C=N/NC(=O)COc2cccc3cccnc23)c2ccccc21	2.1%	-2.2%
CCOc1ccc(OCC)c(NC(=O)C2CCCN(S(=O)(=O)c3cnc[nH]3)C2)c1 (stereo not drawn)	i	-2.9%
COCCn1nnnc1C(c1ccccn1)N1CCN(c2cc(C)ccc2C)CC1 (stereo not drawn)	-5.7%	-18.1%
COc1ccc(C=C2NC(=O)NC2=O)cc1O	-6.4%	-13.9%
CCc1ccc(N=Nc2ccc(O)c3[nH]cnc23)cc1	-22.2%	-11.0%
O=C(Nc1nccs1)c1ccccc1[N+](=O)[O-]	-9.3%	-5.6%
CCCCN1CC[C@H]2C=CC[C@@H](C(=O)NCc3ccc(OC)cc3)[C@H]2C1=O	i	-20.7%&-0.1%
CC(=O)Nc1ccc(NC(=O)CN(c2ccc(C(C)C)cc2)S(=O)(=O)c2ccccc2)cc1	i	-9.1%
COc1cccc(/C=N/NC(=O)c2ccc(-c3ccccc3)cc2)c1O	4.47µM*	u
Cc1ccc(OCC(=O)Nc2sc3c(c2C#N)CCC3)cc1	i	-18.3%
O=c1cc(-c2ccccc2Cl)oc2c(NS(=O)(=O)c3ccccc3OC(F)(F)F)ccc(O)c12	-29.9%	u
COc1cccc(CNC(=O)Cc2ccc(NC(=O)N3CCCCc4ccccc43)cc2)c1OC	i	-16.8%
CCOc1ccc(S(=O)(=O)N2CCC(c3ccncc3)CC2)cc1	-1.4%	-28.3%
COc1ccc(Cl)cc1N(C(C)C(=O)NC1CCCC1)S(C)(=O)=O (stereo not drawn)	-14.0%	0.0%
CCOC(=O)C1CCCN(C(=O)Cn2nc(CC)n3c(cc4occc43)c2=O)C1 (stereo not drawn)	-15.0%	0.2%
CCCCC(CC)CNC(=O)CN1C(=O)NC2(CCc3ccccc32)C1=O (stereo not drawn)	u	u
Cc1ccc(Cl)cc1N1C(=O)CC(Sc2ccccc2N)C1=O (stereo not drawn)	i	1.9%
COc1ccc(NC(=O)CCn2c(=S)[nH]c3ccccc3c2=O)cc1Cl	-8.8%	-14.4%
COc1cc(C(=O)NCCNC(=O)c2cnccn2)cc(OC)c1OC	i	-6.5%
C/C(CC(=O)Nc1ccc(N(C)C)cc1)=N\NC(=O)c1ccccc1Cl	-4.9%	-4.5%
COc1ccccc1NC(=O)COn1nnc2ccc(S(=O)(=O)N3CCOCC3)cc21	-23.9%	-21.0%
Cc1cccc(NC(=O)C(Cc2ccccc2)NS(=O)(=O)c2ccc3c(c2)c(=O)n(C)c(=O)n3C)c1 (stereo not drawn)	-6.6%	-9.4%
COc1cc(N2C(=O)C=CC2=O)ccc1N1C(=O)C=CC1=O	-29.9%	u
CC(C)(C)S(=O)N1Cc2cn(Cc3ccccc3)c(=O)cc2[C@@H]1CCO (stereo partly drawn)	-16.3%	-11.1%
COc1cc(Cl)c(CN2CCCC(CO)(Cc3ccccc3)C2)cc1OC (stereo not drawn)	-17.3%	-12.1%
O=C(CC(c1ccccc1)c1ccccc1)Nc1ccc2c(c1)OCCO2	-9.0%	-0.4%
CCC(=O)N1CCc2cc(S(=O)(=O)NC(C(=O)NC3CCCc4ccccc43)C(C)C)ccc21 (stereo not drawn)	-4.0%	-12.3%
O=C1C2C(c3ccccc3)(C(=O)N1c1ccc(Cl)cc1)C2(c1ccccc1)c1ccccc1 (stereo not drawn)	-11.5%	-1.1%
OCCNCc1ccc(-c2ccccc2)cc1	-28.9%	-20.3%
Continued.
SMILES	Vaccinia mCherry	Vaccinia Venus
COC(=O)[C@@]12C[C@@H](CC(=O)NCc3cccc(C(F)(F)F)c3)C(=O)N(CCc3ccc(OC)c(OC)c3)C1=CCC(C)(C)C2	i	-15.8%
Cn1cnc2nc(NCCO)nc(NCc3ccccc3)c21	-9.9%	-9.9%
CCc1ccc2[nH]c(=O)c(-c3ccccc3)c(O)c2c1	i	-17.8%
CCc1nc2oc3ccccc3c(=O)c2cc1C(=O)OC	-8.5%	-5.3%
CC1CCCN(S(=O)(=O)c2ccc(N3CCCCS3(=O)=O)cc2)C1 (stereo not drawn)	-11.6%	-12.3%
CCC1CN(C(=O)N2CCC(C(=O)NCc3ccccc3C)CC2)c2ccccc2O1 (stereo not drawn)	14.7%	-6.8%
O=C(Nc1c(O)c2ccccc2oc1=O)c1ccccc1Cl	-10.2%	-7.6%
O=C(Oc1ccc(F)cc1)c1nc(SCc2ccccc2F)ncc1Cl	-19.0%	-10.7%
O=C(Cc1ccccc1F)N1CCN(CC(=O)N2CCCC2)CC1	i	-10.0%
Cc1c2cnn(CC(=O)NCCN3CCOCC3)c(=O)c2c(C)n1Cc1ccccc1	-1.3%	-14.6%
O=C(Cn1cnc([N+](=O)[O-])c1)c1ccc(Cl)cc1	-20.8%	-4.6%
CCC(C)(C)n1nnnc1C(c1ccc2ncccc2c1)N1CCCCCC1 (stereo not drawn)	-12.6%	-4.5%

7 entries from above, as a markdown table.
| canonical_smiles | Vaccinia mCherry | Vaccinia Venus |
| --- | --- | --- |
| CCc1nc2oc3ccccc3c(=O)c2cc1C(=O)OC | -8.5% | -5.3% |
| CC1CCCN(S(=O)(=O)c2ccc(N3CCCCS3(=O)=O)cc2)C1 (stereo not drawn) | -11.6% | -12.3% |
| CCC1CN(C(=O)N2CCC(C(=O)NCc3ccccc3C)CC2)c2ccccc2O1 (stereo not drawn) | 14.7% | -6.8% |
| O=C(Nc1c(O)c2ccccc2oc1=O)c1ccccc1Cl | -10.2% | -7.6% |
| O=C(Oc1ccc(F)cc1)c1nc(SCc2ccccc2F)ncc1Cl | -19.0% | -10.7% |
| O=C(Cc1ccccc1F)N1CCN(CC(=O)N2CCCC2)CC1 | i | -10.0% |
| Cc1c2cnn(CC(=O)NCCN3CCOCC3)c(=O)c2c(C)n1Cc1ccccc1 | -1.3% | -14.6% |

(next part)
SMILES	Vaccinia mCherry	Vaccinia Venus
Cc1nn(-c2ccccc2)c(C)c1/C=N/NC(=O)c1cc(-c2ccccc2)n[nH]1	-9.7%	-26.4%
CC(/C=C1\SC(=S)N(CCC(=O)Nc2cccc(C(=O)O)c2)C1=O)=C\c1ccccc1	-3.1%	18.0%
N#CC(=Cc1ccncc1)c1ccccc1	i	-11.2%
CCOC(=O)/C(=C/Nc1ccc(F)c(F)c1)[N+](=O)[O-]	-4.4%	-9.5%
COCCNC(=O)c1ccc(-n2c(SCc3cc(F)ccc3F)nc3ccccc3c2=O)cc1	0.3%	-7.4%
COc1ccc(-c2csc(NC(=O)CSCC(=O)Nc3cc(C)on3)n2)cc1OC	-12.4%	-9.1%
O=C(OCc1c(Cl)cccc1Cl)c1ccccn1	x	-0.4%
Cc1ccc(-n2ncc3c(NCCCn4ccnc4)ncnc32)cc1Cl	-22.2%	-16.0%
COc1cccc(C2CC(=O)Nc3c2c(=O)n(C)c2ncnn32)c1OC (stereo not drawn)	-23.7%	-2.3%
C(=C\c1ccccc1)/CN1CCN(C(c2nnnn2C2CCCC2)C2CC2)CC1 (stereo not drawn)	i	-1.9%
CCN(Cc1ccccc1)C(c1ccc(C(F)(F)F)cc1)c1nnnn1C(C)(C)C (stereo not drawn)	x	4.5%
Cc1c(NC(=O)c2ccc3c(c2)C(=O)N(CC2CCCO2)C3=O)cccc1C(=O)O (stereo not drawn)	i	-2.7%
COc1ccc(Nc2nc(N)nc(CN3CCC(C)CC3)n2)cc1	-7.9%	9.4%
O=C(NCc1ccccn1)c1cc(-c2ccccc2Cl)nc2ccccc12	-0.4%	-11.2%
O=C(c1ccco1)N1CCN(c2ncnc3c2oc2ccccc23)CC1	-4.4%	-15.2%
O=C(NC1CC1)c1cc(=O)c2ccccc2o1	-13.1%	-6.7%
CC(NC(=O)Cc1cccs1)C(c1cccs1)N1CCN(c2ccccc2)CC1 (stereo not drawn)	-23.1%	0.0%
O=C(c1cc(=O)c2cc(Cl)ccc2o1)N(Cc1ccccc1)C1CCS(=O)(=O)C1 (stereo not drawn)	11.5%	0.7%
CCc1cccc(NC(=O)Cn2c(=O)n(CCC(=O)NCC3CCCO3)c(=O)c3cc(OC)c(OC)cc32)c1 (stereo not drawn)	-10.0%&-7.6%	-6.3%&-11.1%
c1ccc(-c2nc3ccccc3c3nc4ccccc4n23)cc1	-10.9%	-7.3%
COc1ccc(-c2cc([C@H]3[C@@H]4C=CCC[C@@]4(C)C(=O)N3Cc3ccccc3)ccc2F)cc1	-2.2%	-15.1%
CCCCN1C(=O)C(CC(=O)NC2CC2)CC(C(=O)N(C(C)C)C(C)C)=C1C (stereo not drawn)	1.6%	-3.3%
O=S(=O)(c1cccs1)n1cccn1	-14.2%	3.4%
O=C1C(=Cc2cn(-c3ccccc3)nc2-c2ccc(OCc3ccccc3F)cc2)SC(=S)N1CCS(=O)(=O)O	i	-8.8%
Cc1cccc(-n2c(N)cc(=O)nc2SCC(=O)Nc2nnc(C)s2)c1	-9.8%	-9.6%
O=C(NCc1ccccc1)C(C1CC1)n1c(=O)c(-c2cc3ccccc3[nH]2)nc2ccccc21 (stereo not drawn)	-23.7%	-6.1%
COc1cccc(CNC(=O)C2CCCN(S(=O)(=O)c3c(C)[nH]c(=O)[nH]c3=O)C2)c1 (stereo not drawn)	-13.9%	-7.8%
Cc1cc(C)cc(NC(=S)NC(=O)CCN2C(=O)c3ccccc3C2=O)c1	-11.8%	-10.1%
CCc1ccc(Cn2c(CNS(=O)(=O)c3ccc4c(c3)CCCC4)nc3cccnc32)cc1	-12.8%	-10.3%
Cc1ccc(-n2c3nc(=O)[nH]c(=O)c-3cc3c(C)nn(-c4ccccc4)c32)c(C)c1	-12.9%	4.2%&0.8%
CC(C)(C)OC(=O)N1CCC(c2c(C(=O)NCCN3CCOCC3)cnn2-c2cccc(F)c2)CC1	-8.3%	-4.8%
CCOc1ccccc1N(C)C(=O)Cn1cnc2onc(-c3ccc(F)cc3)c2c1=O	-21.7%	-8.6%
CC(=O)Nc1ccc(-c2csc(NCc3ccco3)n2)cc1	-24.7%	-15.3%
CCOC(=O)/C(C#N)=C/c1cn(CCC(=O)O)nc1-c1cccc(Br)c1	9.8%	-0.3%

Source: PubChem
